rRNA inh HTS: inhibitors of bacterial rRNA selective over humanized ribosomes | E. coli WT GFP vs humanized-ribosome RFP mutants, fluorescence, 24 h; stronger effect = lower value; DMSO median 0, no signal -100 | GFP signal change (wild-type ribosome), % (concentration not given with the values) | hit rate 1.6% among 350,000;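 active = significant combined selectivity score with lowered wild-type GFP, culture density cut under 30%, mutant RFP and density less affected; inactive = any of these conditions unmet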; also: one replicate is shown; some compounds called inactive have numbers as strong as hits
FGF22 binding: shifts melting point of recombinant human FGF22 | hit rate 1.5% among 340,000 | recombinant FGF22 thermal shift, SYPRO orange fluorescence; percent of sucrose octasulfate shift, DMSO zero | AID 651658 | Q9HCT0 | calls only at 9.99 µM;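 active = melting point raised past a set limit in the mean and every replicate; three in four hits are not shown here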
Target sequence (Q9HCT0 whole entry, looked up): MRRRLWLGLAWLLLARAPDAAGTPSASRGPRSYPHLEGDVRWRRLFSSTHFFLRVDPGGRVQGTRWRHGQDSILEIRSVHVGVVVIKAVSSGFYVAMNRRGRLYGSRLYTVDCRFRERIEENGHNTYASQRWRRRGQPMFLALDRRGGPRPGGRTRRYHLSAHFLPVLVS
AF4-AF9 inh: MLL-AF4/AF9 protein interaction inhibition | P42568 | AlphaScreen, biotin-AF4 peptide binding to FLAG-AF9 | inhibition, % at 10 µM | hit rate 0.47% among 350,000 | AID 651704;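 active = every replicate reaching a set inhibition limit, whatever the replicate mean, cut at about 25% in these data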;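 also: 0% = plate neutral control median and 100% = total signal loss; the record names both 10 and 1 µM as test concentration; the first replicate is given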
Target sequence (P42568 whole entry, looked up): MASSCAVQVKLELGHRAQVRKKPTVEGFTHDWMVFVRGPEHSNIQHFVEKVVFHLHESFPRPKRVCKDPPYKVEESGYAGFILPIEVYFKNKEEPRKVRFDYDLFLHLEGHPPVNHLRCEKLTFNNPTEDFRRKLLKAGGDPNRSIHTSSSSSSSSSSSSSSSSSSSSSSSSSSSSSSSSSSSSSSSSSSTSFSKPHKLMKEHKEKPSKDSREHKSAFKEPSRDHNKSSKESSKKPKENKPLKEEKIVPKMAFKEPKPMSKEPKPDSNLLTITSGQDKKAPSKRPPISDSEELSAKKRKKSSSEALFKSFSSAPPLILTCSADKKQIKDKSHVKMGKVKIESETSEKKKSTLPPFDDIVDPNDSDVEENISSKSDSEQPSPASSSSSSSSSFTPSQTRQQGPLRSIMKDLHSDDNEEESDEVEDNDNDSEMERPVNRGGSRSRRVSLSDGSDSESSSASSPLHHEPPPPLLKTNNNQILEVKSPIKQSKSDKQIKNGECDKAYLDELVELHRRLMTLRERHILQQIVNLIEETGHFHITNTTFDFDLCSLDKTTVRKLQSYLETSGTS
rRNA inh HTS OD600: second read-out of rRNA inh HTS, no call of its own (marks repeat the call); OD600 change, %; measured here: OD600 growth;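 optical density of the mix in the first replicate; 0 = DMSO median and -100 = no signal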
rRNA inh HTS RFP: second read-out of rRNA inh HTS, no call of its own (marks repeat the call); RFP signal change, %; measured here: RFP humanized mutant strains;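 first replicate; 0 = DMSO median and -100 = no signal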
The depositor's hits bear a star; i = inactive; & = joins results of further samples. These rows are one share of the data; the hit share may differ from the screen's.

SMILES | rRNA inh HTS | rRNA inh HTS OD600 | rRNA inh HTS RFP | FGF22 binding | AF4-AF9 inh
C[C@H](CO)N1C[C@H](C)[C@H](CN(C)Cc2ccc(Oc3ccccc3)cc2)Oc2ccc(NC(=O)Cn3cnnn3)cc2CC1=O | -3.4 | -19.8 | 4.2 | i | 4.0
C[C@@H]1CN([C@H](C)CO)C(=O)c2cc(C#Cc3ccncc3)cnc2O[C@@H]1CN(C)Cc1ccncc1 | 12.1 | 25.9 | -3.6 | i | -6.5
COc1ccc(NC(=O)Nc2ccc3c(c2)CC(=O)N([C@@H](C)CO)C[C@@H](C)[C@H](CN(C)S(=O)(=O)c2ccc(F)cc2)O3)cc1 | 1.3 | 8.4 | -1.9 | i | 3.1
C[C@@H]1CCCCO[C@@H](CN(C)C(=O)C2CCCCC2)[C@@H](C)CN([C@H](C)CO)C(=O)c2cc(NC(=O)Nc3ccccc3)ccc2O1 | 2.3 | -2.7 | 1.2 | i | -1.6
Cc1ccc(NC(=O)C2CCN(S(=O)(=O)c3ccc4ccccc4c3)CC2)nc1 | -0.5 | -1.2 | 0.1 | i | -8.1
CN(C)CC(=O)N[C@H]1CC[C@H](CC(=O)NCc2ccccc2F)O[C@@H]1CO | -0.5 | -4.0 | -4.0 | i | -3.5
COc1ccccc1S(=O)(=O)N[C@H]1CC[C@@H](CC(=O)N2CCN(C)CC2)O[C@H]1CO | 1.6 | 1.7 | -1.0 | i | -0.6
COc1ccccc1CNC(=O)C[C@@H]1C[C@H]2c3cc(NC(=O)c4cccnc4)ccc3O[C@H]2[C@@H](CO)O1 | 3.3 | 1.2 | 0.2 | i | 5.9
CC1c2ccccc2-c2ccccc2N1C (stereo not given) | -34.0 | -28.6 | -7.2 | i | -4.8
O=C(COC(=O)c1c(F)cccc1F)Nc1ccc2c(c1)OCO2 | -2.1 | 0.4 | -1.9 | i | -15.9
Cc1ccccc1-c1ccc([C@H]2[C@@H](CO)N3CCCCN(C(=O)CN4CCOCC4)C[C@@H]23)cc1 | 0.0 | 15.6 | 0.3 | i | 2.2
CCCC#Cc1cnc2c(c1)C(=O)N([C@H](C)CO)C[C@H](C)[C@@H](CN(C)Cc1cccnc1)O2 | 3.2 | 3.4 | 1.8 | i | 9.0
COc1ccc(-c2cnc3c(c2)C(=O)N([C@@H](C)CO)C[C@@H](C)[C@@H](CN(C)Cc2cccnc2)O3)cc1 | 1.0 | -5.0 | -0.4 | i | -3.1
C[C@H](CO)N1C[C@H](C)[C@@H](CN(C)Cc2ccccc2)OCCCC[C@H](C)Oc2ccc(NC(=O)c3ccncc3)cc2C1=O | 1.8 | 2.4 | -0.2 | i | -3.8
CCC(C)(C)C1CCC2(CC1)NC(=O)N(CC(=O)N1CCN(c3ccccc3OC)CC1)C2=O (stereo not given) | 7.2 | -2.6 | 0.2 | i | 0.1
O=C(NCC[C@@H]1CC[C@H](NC(=O)Nc2cc(F)ccc2F)[C@@H](CO)O1)Nc1ccc(F)cc1 | -2.2 | 1.3 | 2.5 | i | 14.1
CNC[C@H]1Oc2c(NS(=O)(=O)c3ccc(OC)cc3)cccc2C(=O)N([C@@H](C)CO)C[C@H]1C | 0.5 | 4.8 | 1.1 | i | -3.4
COc1cc(C(=O)COC(=O)c2ccc3c(c2)OCCO3)cc(OC)c1OC | -4.9 | -8.3 | 2.3 | i | 0.9
CCCCCCCCN1C(=O)[C@@H](CC(=O)NCc2cccs2)C[C@@]2(C(=O)OC)C1=C[C@H](C1CCCC1)O[C@@H]2C | 9.8 | 3.0 | -2.4 | i | -3.4
COC(=O)c1ccc(CSc2ccccc2NC(=S)Nc2cccc(C(F)(F)F)c2)o1 | -22.2 | -58.7 | 1.8 | i | 6.1
C[C@H](CO)N1C[C@H](C)[C@@H](CN(C)C(=O)Nc2cccc3ccccc23)Oc2ccc(NC(=O)Cc3cn(C)c4ccccc34)cc2CC1=O | -6.8 | -5.4 | -1.8 | i | 0.2
O=C(Nc1ccc2c(c1)[C@@H]1C[C@H](CC(=O)N3CCOCC3)O[C@H](CO)[C@@H]1O2)Nc1ccccc1F | -1.5 | -6.2 | -0.7 | i | 0.8
CC(=O)c1cccc(-c2ccnc3c2CC(C(=O)Nc2cccc(C(F)(F)F)c2)O3)c1 (stereo not given) | -10.2 | -26.0 | 4.9 | i | -2.6
C[C@@H]1CCCCO[C@@H](CN(C)C(=O)NC2CCCCC2)[C@H](C)CN([C@H](C)CO)C(=O)c2cc(NS(=O)(=O)c3ccccc3)ccc2O1 | -2.6 | -9.9 | 3.0 | i | 1.8
Cc1ccc(S(=O)(=O)N[C@H]2CC[C@H](CC(=O)NCCN3CCCCC3)O[C@@H]2CO)cc1 | 3.5 | 5.5 | -1.4 | i | -0.8

Reprinted from the part before: 4 compounds, then new ones.
SMILES | rRNA inh HTS | rRNA inh HTS OD600 | rRNA inh HTS RFP | FGF22 binding | AF4-AF9 inh
O=C(Nc1ccc2c(c1)[C@@H]1C[C@H](CC(=O)N3CCOCC3)O[C@H](CO)[C@@H]1O2)Nc1ccccc1F | -1.5 | -6.2 | -0.7 | i | 0.8
CC(=O)c1cccc(-c2ccnc3c2CC(C(=O)Nc2cccc(C(F)(F)F)c2)O3)c1 (stereo not given) | -10.2 | -26.0 | 4.9 | i | -2.6
C[C@@H]1CCCCO[C@@H](CN(C)C(=O)NC2CCCCC2)[C@H](C)CN([C@H](C)CO)C(=O)c2cc(NS(=O)(=O)c3ccccc3)ccc2O1 | -2.6 | -9.9 | 3.0 | i | 1.8
Cc1ccc(S(=O)(=O)N[C@H]2CC[C@H](CC(=O)NCCN3CCCCC3)O[C@@H]2CO)cc1 | 3.5 | 5.5 | -1.4 | i | -0.8
COc1ccc2c3c([nH]c2c1)[C@@H](CO)N(C(=O)C1CCC1)CC31CN(C(=O)NC(C)C)C1 | 1.1 | 5.2 | -0.8 | i | -2.4
Cc1cccc(C)c1-n1nnnc1C1c2ccccc2C(=O)N1C1CC1 (stereo not given) | 9.1 | 8.8 | 3.3 | i | -0.1
CCOC(=O)C1CCN(C(=O)COC(=O)CSc2ccccc2C)CC1 | -1.3 | -0.8 | -4.7 | i | -2.1
C[C@H](O)C#Cc1cnc2c(c1)C(=O)N([C@H](C)CO)C[C@@H](C)[C@H](CN(C)Cc1cccc(C(=O)O)c1)O2 | 3.0 | 0.6 | 2.1 | i | -6.4
C[C@@H](NC(=O)C[C@H]1CC[C@H]2[C@H](COc3ccc(NS(=O)(=O)c4ccc(Cl)cc4)cc3C(=O)N2C)O1)c1ccccc1 | -2.2 | -14.8 | 0.4 | i | -0.3
COc1cccc(C#Cc2cnc3c(c2)C(=O)N([C@@H](C)CO)C[C@@H](C)[C@H](CN(C)C(=O)C2CC2)O3)c1 | -0.1 | 7.8 | -2.0 | i | 0.7
COCC#Cc1cnc2c(c1)C(=O)N([C@@H](C)CO)C[C@@H](C)[C@@H](CN(C)C(=O)C1CCCCC1)O2 | 3.8 | 1.5 | -3.6 | i | -3.0
CC(C)CC#Cc1cnc2c(c1)C(=O)N([C@H](C)CO)C[C@H](C)[C@H](CN(C)Cc1ccccc1C(=O)O)O2 | 0.1 | 3.4 | -1.5 | i | -5.5
CO[C@H]1CN(C)C(=O)c2cc(NS(=O)(=O)c3cn(C)cn3)ccc2OC[C@@H](C)N(CC2CC2)C[C@H]1C | 3.2 | 3.7 | 1.3 | i | -3.1
C/C=C/c1cccc(-c2nc(C(=O)N3CCCCC3)cc3c2[C@@H](CCO)N(C(=O)NC(C)C)C3)c1 | -3.0&-3.0 | -1.2&5.6 | -1.7&3.1 | i | 2.5&-1.4
CC(=O)N1[C@@H]2c3ccc(-c4ccccc4)c(=O)n3C[C@@H]2[C@@H](CO)[C@@H]1C(=O)N(C)C | -0.2 | 9.6 | -4.6 | i | 0.6
C[C@@H]1CCCCO[C@H](CN(C)Cc2ccc(Cl)c(Cl)c2)[C@H](C)CN([C@@H](C)CO)C(=O)c2cc(NS(=O)(=O)c3ccc(Cl)cc3)ccc2O1 | -4.1 | 5.9 | 3.9 | i | 1.0
COc1ccc2c3c([nH]c2c1)[C@@H](CO)N(C(=O)c1ccccc1)CC31CN(C(=O)NC(C)C)C1 | 4.4 | 15.4 | -1.8 | i | 0.0
O=C(Nc1ccccc1)c1cc(C2CCCCN2C(=O)OCCF)on1 (stereo not given) | -0.9 | 8.0 | -0.7 | i | 1.7
C[C@H]1CN([C@@H](C)CO)C(=O)Cc2cc(NC(=O)C3CCCCC3)ccc2O[C@H]1CN(C)S(=O)(=O)c1cccs1 | 0.9 | 0.1 | 0.9 | i | -1.3
C[C@H](CO)N1C[C@H](C)[C@@H](CN(C)S(=O)(=O)c2ccc(C(F)(F)F)cc2)OCc2ccccc2-c2ccccc2C1=O | -1.0 | -14.1 | 4.6 | i | 0.9
COCC#Cc1cnc2c(c1)C(=O)N([C@@H](C)CO)C[C@@H](C)[C@@H](CN(C)C(=O)c1ccc3c(c1)OCO3)O2 | 0.2 | -0.2 | -5.9 | i | -3.0
CN(C)CC(=O)N1CCCCN2[C@@H](CO)[C@@H](c3ccc(-c4cccc(C(=O)N(C)C)c4)cc3)[C@@H]2C1 | 3.0 | 11.0 | -6.1 | i | 0.6
CCCc1cc(=O)oc2c3c(cc(OCC(=O)N4CCC(C(=O)O)CC4)c12)OC(C)(C)CC3 | -14.9 | -3.2 | -2.8 | i | 0.3
O=C(CCN1CCCCC1)N[C@H]1CC[C@H](CCn2cc(-c3ccccc3)nn2)O[C@@H]1CO | 0.9 | 5.7 | -1.7 | i | 0.4
C=CCn1c(C)cc(C(=O)CSc2nnc3n(CCC)c(=O)c4ccccc4n23)c1C | -0.9 | -1.5 | -1.7 | i | -1.4
CC(C)NC(=O)N(C)C[C@H]1OCCCC[C@@H](C)Oc2ccc(NS(=O)(=O)c3cccs3)cc2C(=O)N([C@H](C)CO)C[C@@H]1C | 2.4 | 4.6 | -1.4 | i | -2.2
COc1ccc2sc(C)cc(=O)c2c1 | 5.5 | 8.1 | 0.4 | i | 3.9
Cc1ccccc1-c1ccc([C@@H]2[C@H](CO)N3CCCCN(CC4CC4)C[C@@H]23)cc1 | -0.5 | -5.2 | 2.0 | i | 15.9
O=C(c1cccnc1)N1C[C@H]2[C@@H](c3ccccc31)[C@H](CO)N2C(=O)C1CCCC1 | 0.7 | 3.2 | -0.7 | i | -5.2
The listing continues:
SMILES | rRNA inh HTS | rRNA inh HTS OD600 | rRNA inh HTS RFP | FGF22 binding | AF4-AF9 inh
COCC(=O)Nc1ccc2c(c1)C(=O)N(C)C[C@@H](OC)[C@H](C)CN(C(=O)c1ccncc1)[C@@H](C)CO2 | 0.8 | 9.9 | -1.0 | i | -0.6
CC1(C)C(C(N)=O)C(=O)NC(=O)C1C(N)=O (stereo not given) | 7.1 | 12.0 | -6.0 | i | -0.8
Cc1cccc(C)c1NC(=O)C(c1ccccc1)n1c(=O)c(-c2ccccc2)nc2ccccc21 (stereo not given) | 12.0 | 17.0 | 1.1 | i | 13.9
F[B-](F)(F)c1cncnc1 | 1.6 | 3.5 | 4.9 | i | 0.4
C(=Cc1cccnc1)c1ccncc1 | 5.0 | -3.1 | 4.1 | i | -0.8
COC(=O)C[C@@H]1CC[C@H](NC(=O)Nc2cccc(F)c2)[C@@H](CO)O1 | 10.4 | 7.5 | 1.3 | i | -2.6
O=C(CCNS(=O)(=O)c1ccc(Br)cc1)NCC(c1cccs1)N1CCOCC1 (stereo not given) | 4.1 | 5.3 | -0.1 | i | 3.2
C[C@H](CO)N1C[C@H](C)[C@H](CN(C)C(=O)Cc2ccccn2)Oc2cc(C#C[C@@H](C)O)ccc2S1(=O)=O | -1.6 | 0.6 | -0.1 | i | -10.1
CO[C@@H]1CN(C)C(=O)c2cc(NC(=O)Cc3ccccc3)ccc2OC[C@@H](C)N(C)C[C@@H]1C | -3.7 | 1.2 | 0.7 | i | -0.4
COCC#Cc1cnc2c(c1)C(=O)N([C@H](C)CO)C[C@@H](C)[C@H](CN(C)Cc1ccccc1)O2 | 6.4 | 15.3 | -4.5 | i | 0.2
CNC(=O)C[C@H]1CC[C@@H]2[C@H](COc3ccc(NC(=O)c4ccc(OC)cc4)cc3C(=O)N2C)O1 | -7.1 | 2.1 | 13.6 | i | 0.0
CC1(C(=O)NCc2cccs2)CCN1CCc1ccccc1 (stereo not given) | -4.4 | -9.2 | -0.9 | i | 3.3
O=C(Cc1cccc(NC(=O)C2CCN(C(=O)CCc3ccccc3)CC2)c1)Nc1cccc(C(=O)N2CCOCC2)c1 | -5.7 | -5.7 | -2.7 | i | -4.2
C[C@@H]1CN([C@H](C)CO)C(=O)c2cc(NC(=O)c3ccccc3)ccc2O[C@@H](C)CCCCO[C@@H]1CN(C)C(=O)CCC(F)(F)F | -1.7 | -7.3 | 0.6 | i | 1.1
CC1C(=O)N(Cc2cn(CCC3OCCCO3)nn2)CCS(=O)(=O)N1Cc1ccc(-c2ccc(F)nc2)cc1 (stereo not given) | -0.7 | 7.7 | -0.2 | i | 1.0
O=C(C[C@@H]1CC[C@H]2[C@@H](COC[C@@H](O)CN2Cc2cccc(-c3ccncc3)c2)O1)N1CCN(c2ccccc2)CC1 | -0.5 | 4.4 | 6.2 | i | 4.4

Screening results from PubChem.
